PABP polyA inh = blocks human PABP binding to poly(A) RNA; hit rate 1% among 290,000; inhibition, % at 35 µM; P11940; fluorescence polarization; AID 2014;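 active means 50% or more with normal probe brightness, or confirmed in later tests; about a fifth of its hits are not listed in these tables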;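 further: calls also rest on retests at 20 µM and on dose response follow-up; controls were probe without protein and protein plus probe with vehicle; some compounds called inactive have numbers as strong as hits; many hits fall short of the cut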
Env fusion inh = inhibitors of HIV Env-mediated cell fusion | inhibition, % at 12.3 µM | hit rate 1.1% among 360,000 | HeLa-JRFL Env/CEM21 cell fusion, luciferase;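 active means mean replicate inhibition score of at least 50 and every replicate individually at or above 50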;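 further: 0% = plate neutral controls and 100% = maraviroc near 300 nM; one replicate is shown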
eIF4H inh = inhibitors of RNA binding by human eIF4H | eIF4H fluorescence polarization binding assay | hit rate 0.94% among 290,000 | inhibition, % at 35 µM;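 active means 50% or more with normal probe brightness, or confirmed in later tests; about a fifth of its hits are not listed in these tables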;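 further: calls also rest on retests at 20 µM and on dose response follow-up; 0% = protein and probe with vehicle and 100% = probe without protein; strong numbers were not always called active; many hits fall short of the cut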
CSC inhib = blocks cancer stem cells; hit rate 1.1% among 300,000; inhibition, % at 7.5 µM; AID 2717; cancer stem cell-like cells viability, luminescence;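 active means mean at 75% or more and at least half the replicates too; tested in HMLE shEcad cells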;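 further: 0% = median of negative and 100% = median of positive control wells; the first replicate is given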
Yeast UUG start = modulators of start codon recognition fidelity in yeast | S. cerevisiae UUG-firefly luciferase reporter, luminescence/redox ratio | activity score, % at 18.7 µM | hit rate 0.13% among 350,000 | AID 602363;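 active means replicate mean at a twofold rise or more, about +100% in these data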;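 further: firefly luciferase made from a UUG start codon reports start codon fidelity; reporter light over untreated wells divided by growth signal over untreated wells; some hits fall short of that in this replicate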
Rce1 inh = blocks yeast Ras-converting enzyme | yeast membranes, quenched prenylated peptide cleavage fluorescence | calls only | hit rate 0.27% among 290,000;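 active means fall in fluorescence gain of 50% or more versus controls, with final raw signal at or below 3038400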;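 further: plate controls were neutral control wells for no effect and wells lacking membranes for full effect; tested at 10 µM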
Target sequence (Q03530 whole entry, looked up): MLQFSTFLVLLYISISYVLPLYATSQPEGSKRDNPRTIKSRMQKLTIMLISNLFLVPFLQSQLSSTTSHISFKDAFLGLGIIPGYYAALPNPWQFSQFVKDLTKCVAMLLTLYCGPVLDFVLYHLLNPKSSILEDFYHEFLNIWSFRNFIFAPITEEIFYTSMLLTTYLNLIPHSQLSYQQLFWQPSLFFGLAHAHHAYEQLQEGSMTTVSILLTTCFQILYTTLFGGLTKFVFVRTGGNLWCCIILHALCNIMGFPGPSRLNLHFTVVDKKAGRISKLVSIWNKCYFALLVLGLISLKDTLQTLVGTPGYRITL
MT1-MMP act inh = blocks activation of human MT1-MMP; hit rate 0.061% among 360,000; GFP/RFP ratio change, % at 20 µM; HT1080 RFP-PRO-GFP cells, GFP/RFP ratio fluorescence, overnight; percent of plate control window, DMSO zero;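 active means GFP/RFP ratio change of at least 30% with cell ATP level not reduced by more than half and red fluorescence within 50% of control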; further: strong numbers were not always called active
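Assay system – RFP-PRO-GFP reporter HT1080 cells · Compound dosing – single dose of 20 µM compound, 1% DMSO final · Incubation – overnight compound exposure at 37 °C · Measure – GFP/RFP fluorescence ratio · Benchmarks – DMSO wells and RFP-L50D-GFP cells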
eIF4H inh retest = also measured in eIF4H inh; calls as there; inhibition, %; compound at 20 µM; confirmation average;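 mean of two retest wells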
PABP polyA inh retest = also measured in PABP polyA inh; calls as there; inhibition, %; compound at 20 µM; confirmation repeats;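 mean of two retest wells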
MT1-MMP act inh RFP = also measured in MT1-MMP act inh; calls as there; RFP signal change, %; measured here: RFP expression control read;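 0 = vehicle wells; hits needed this value within 50% of zero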
* marks the source's active call; other numbers are inactive results; i = inactive; nt = no result given.

SMILES | PABP polyA inh | Env fusion inh | eIF4H inh | CSC inhib | Yeast UUG start | Rce1 inh | MT1-MMP act inh | MT1-MMP act inh RFP | others
COc1ccc(CN=C2Nc3ccccc3CS2)cc1 | 2 | -367 | -8 | 11 | -27 | i | 6 | -10
COc1ccc(NC2CCCN(C(=O)CCCn3cncn3)C2)cc1OC (configuration not stated) | 8 | 5 | 7 | -10 | 5 | i | 5 | 3
ON=C1/C(=N\O)CC2(C/C1=N/O)OCCO2 | -2 | nt | 5 | -8 | -23 | i | 2 | 1
CCCC(NS(=O)(=O)c1ccc(Br)cc1)C(=O)O (configuration not stated) | 7 | -14 | -7 | 4 | -13 | i | -2 | 3
C/C(=N/NS(=O)(=O)c1ccccc1)c1c[nH]c2ccccc12 | 2 | 0 | -16 | -15 | -17 | i | 1 | 3
Cc1ccc(-c2nc3cccnc3s2)cc1NC(=O)C1c2ccccc2Oc2ccccc21 | 8 | nt | -1 | nt | -10 | i | 1 | 3
CC(C)N1CCC(N2CCN(Cc3ccc(Oc4ncccn4)cc3)CC2CCO)CC1 (configuration not stated) | 16 | 2 | 19 | 6 | -9 | i | 5 | 8
Cc1cc(C(=O)N/N=C/c2ccc(O)c(O)c2O)c(C)n1-c1ccccc1 | 3 | 21 | 76 | nt | nt | i | -3 | 1 | eIF4H inh retest=-10;PABP polyA inh retest=17
Cc1cc([N+](=O)[O-])nn1Cc1ccc(C(=O)N/N=C/c2ccccc2)cc1 | 13 | 9 | -4 | -11 | nt | i | 3 | 3
O=[N+]([O-])/C=C/c1cn(Cc2ccc(F)cc2)c2ccccc12 | 12 | -86 | -7 | 137* | -7 | i | -9 | -5
Cc1ccc2c(CC(=O)N(CC3CCCO3)c3c(N)n(Cc4ccccc4)c(=O)[nH]c3=O)coc2c1 (configuration not stated) | nt | -344 | nt | -7 | nt | i | -29 | -18
O=C(O)C1=C(C(=O)Nc2cc(C(F)(F)F)ccc2Cl)CCCC1 | 4 | 7 | -2 | 14 | nt | i | -9 | -6
CC1CN(C(=O)c2cccc(S(=O)(=O)N3CCN(c4ccccc4)CC3)c2)CC(C)O1 (configuration not stated) | nt | 2 | nt | -2 | -1 | nt | 2 | -8
Clc1ccc(CSc2nnc(/C=C/c3ccccc3)o2)c(Cl)c1 | -4 | nt | -13 | 35 | -12 | i | 3 | 6
C=CCN(c1ccc(OC)cc1)S(=O)(=O)c1ccc(Cl)c(C(=O)OCC(=O)NC2CC2)c1 | -8 | 21 | -2 | 7 | nt | i | 0 | 2
CCOC(=O)N1CCN(CC(=O)Nc2nc3ccccc3s2)CC1 | 0 | 8 | 3 | -9 | -8 | i | -3 | -10
CC(C)C[C@@]12C(=O)N(c3cccc(F)c3)C(=O)N1[C@H](c1ccc(Br)cc1)[C@@H]1C(=O)N(C(C)(C)C)C(=O)[C@@H]12 | nt | 69* | nt | 12 | 3 | i | -11 | -10
C=CCNC(=O)c1n[nH]c2c1CC(C(C)(C)CC)CC2 (configuration not stated) | nt | 9 | nt | -10 | -12 | nt | 4 | -8
COc1ccc(CNC(=O)C2CCN(S(=O)(=O)N3CCCC3)CC2)cc1 | nt | -4 | nt | -8 | -12 | i | -2 | 3
COCC(=O)OCC(=O)N1N=C(c2ccc(Cl)cc2)CC1c1ccco1 (configuration not stated) | 0 | -18 | -10 | -3 | nt | i | 3 | 4
CCOC(=O)Cc1nn2c(=O)cc(C)nc2s1 | 10 | nt | -4 | 7 | -18 | i | -19 | 7
COc1ccc(-n2nc(C(=O)NCC(=O)Nc3cccc(Cl)c3)c3ccccc3c2=O)cc1OC | -26 | 2 | 5 | nt | 0 | i | -3 | -8
C[N+]1(C)CCCC(OC(=O)C(O)(c2ccccc2)c2ccccc2)C1 (configuration not stated) | nt | -16 | nt | -8 | 5 | i | 6 | 7
CCN1CCc2c(OCC(=O)N3CCc4ccccc43)cccc2C1=O | -13 | -5 | -1 | -18 | nt | i | nt | nt
Cc1ccsc1CN(C)CC(=O)N(C)CC(=O)Nc1c(Cl)cccc1Cl | nt | -10 | nt | nt | -38 | nt | 0 | 1
Cc1c(C(=O)Nc2cccc([N+](=O)[O-])c2)sc2ncn(CC(=O)N3CCOCC3)c(=O)c12 | 9 | 3 | 12 | 7 | -5 | i | 5 | 1
Cc1ccc(S(=O)(=O)CCC(=O)OCC(=O)NCCc2ccccc2)cc1 | nt | 4 | nt | 6 | -20 | i | -3 | 0
COc1ccc(C2=NS(=O)(=O)N(C)C(C(=O)NCc3ccco3)=C2)cc1OC | -7 | nt | -7 | 3 | 6 | i | -5 | -1
COc1ccccc1CN(C)C(=O)COC(=O)c1ccc(Cl)nc1 | nt | -4 | nt | -20 | -14 | nt | 3 | 3
CCCCNC(=O)C1(O)c2cc(Br)ccc2NC(=O)N1c1cccc(OC)c1 (configuration not stated) | -9 | -2 | -3 | -6 | 5 | i | 1 | -1
COCC(C)n1c(SC(C)C(=O)NC2CCCCC2C)nc2ccccc2c1=O (configuration not stated) | 14 | 16 | 10 | 4 | -4 | i | -2 | 1
Cc1ccc(C(c2c(NC(=O)c3ccco3)sc(C)c2C)N2CCOCC2)cc1 (configuration not stated) | nt | 8 | nt | nt | 7 | nt | -3 | -3
CN1CCN(C(=S)NC(=O)c2ccc(Cl)cc2)CC1 | 0 | -2 | 32 | nt | nt | i | -9 | -7
CCc1ccc(Nc2ncccc2C#N)cc1 | -5 | nt | -10 | nt | -15 | i | -5 | 8
Cc1ccccc1CN1CCN(S(=O)(=O)c2ccc(Cl)s2)CC1 | -6 | nt | 7 | -5 | 19 | i | 1 | -5
Cc1nn(CC(=O)N2CCc3ccccc32)c(C)c1S(=O)(=O)NC(C)(C)C | nt | 5 | nt | -8 | 6 | nt | 2 | -2
CC(C)CCNC(=O)C12CN(Cc3ccccc3)CC1C(c1ccc([N+](=O)[O-])cc1)=NO2 (configuration not stated) | -1 | 7 | -6 | 4 | -9 | i | -7 | -6
O=C(/C=C/c1ccco1)NC(=S)Nc1cccc(-c2nc3ccccc3o2)c1 | 1 | nt | 5 | 71 | nt | i | 0 | -11
CCOc1ccc(OCC)c(NC(=O)C2CCN(c3cnccn3)CC2)c1 | -5 | 7 | -6 | -4 | -30 | i | -2 | 1
N#Cc1cccc(NC(=O)c2cc(C3CCCCN3C(=O)c3ccccn3)on2)c1 (configuration not stated) | nt | -5 | nt | nt | -6 | nt | -1 | 0
COc1cc(/C=C2\N=C3CCCCCN3C2=O)ccc1O | 96 | nt | 100 | -9 | nt | i | -19 | 4 | eIF4H inh retest=10;PABP polyA inh retest=4
COc1ccc(/C=C(\C#N)C(=O)OCC(=O)NCc2ccc(Cl)cc2)cc1 | 0 | nt | 4 | 0 | nt | i | nt | nt
CC(=O)Nc1ccc(NC(=O)C(C)Oc2ccccc2C(=O)NCc2ccccc2)cc1 (configuration not stated) | nt | nt | nt | -19 | -12 | nt | -2 | 1
CN(C)/C=C(/C(=O)c1ccccc1)n1cncn1 | -7 | -2 | 6 | -11 | nt | i | 3 | 4
O=C(Nc1ccccc1)N(C1=NCCCCS1)c1cccc2ccccc12 | 8 | -139 | 3 | 16 | -14 | i | 0 | -6
CNc1nnc(-c2cccc(N(C)C)c2)s1 | 6 | nt | -1 | 17 | -12 | i | 0 | 1
COc1ccc(C(=O)Nc2nnc(C3=COCCO3)o2)cc1OC | -12 | 0 | -10 | -2 | -27 | i | 0 | 6
Cc1cccc(C)c1NC(=O)N1CCC(n2c(=O)[nH]c3ccccc32)CC1 | -10 | nt | -6 | -17 | -11 | i | 5 | 1
CC[C@]12c3[nH]c4ccccc4c3CCN1C(=O)C(CC(=O)NCCC1=CCCCC1)C[C@@H]2C(=O)N1CCN(C(=O)c2ccco2)CC1 (some centres not stated) | nt | -81 | nt | nt | 21 | nt | 2 | -1
Cn1cc([N+](=O)[O-])c(C(=O)NCC(=O)O)n1 | 0 | 16 | 1 | -1 | nt | i | 3 | 5
Cc1ccccc1NC(NC(=O)OCCn1c([N+](=O)[O-])cnc1C)C(Cl)(Cl)Cl (configuration not stated) | 9 | 17 | 8 | 7 | -11 | i | 1 | 4
Nc1nc(-c2c[nH]c3ccccc23)cs1 | 36 | -101 | 4 | nt | -15 | i | 14 | 23
Cc1oc(C(C)(C)C)cc1C(=O)NC(Cc1ccccc1)C(=O)O (configuration not stated) | -3 | -2 | -4 | -6 | nt | i | -5 | -1
CCCC(=O)NC(=S)Nc1ccc(S(=O)(=O)N2CCc3ccccc32)cc1 | nt | -10 | nt | 6 | -1 | i | 3 | -7
COc1cccc(/C=N/n2cnnc2)c1OCc1ccccc1 | -4 | nt | -8 | -18 | -13 | i | -8 | -1
COc1cc(OC)c(OC)cc1/C=N/NC(=O)CCc1c(C)n[nH]c1C | 2 | 16 | -7 | -7 | 1 | i | -3 | -3
Cc1ccc(S(=O)(=O)N2c3ccccc3OCC2C(C)(C)C)cc1 (configuration not stated) | 7 | -157 | 4 | 40 | -3 | i | -3 | -9
O=C(CCCCCNC(=O)N1CCn2c1nc1ccccc12)N[C@H](Cc1ccccc1)C(=O)O | 0 | nt | -10 | -6 | -20 | i | 1 | 6
Cc1ccccc1NC(=O)C1CC(=O)OC12CCOC(C)(C)C2 (configuration not stated) | -1 | 15 | -1 | -7 | -17 | nt | -1 | 5

Source: PubChem
